# Rce1 inh: blocks yeast Ras-converting enzyme; yeast membranes, quenched prenylated peptide cleavage fluorescence; calls only; 290,000 tested, 0.27% active; AID 2563;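 active means fall in fluorescence gain of 50% or more versus controls, with final raw signal at or below 3038400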;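 further: plate controls were neutral control wells for no effect and wells lacking membranes for full effect; tested at 10 µM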
# Target sequence (Q03530 whole entry, looked up): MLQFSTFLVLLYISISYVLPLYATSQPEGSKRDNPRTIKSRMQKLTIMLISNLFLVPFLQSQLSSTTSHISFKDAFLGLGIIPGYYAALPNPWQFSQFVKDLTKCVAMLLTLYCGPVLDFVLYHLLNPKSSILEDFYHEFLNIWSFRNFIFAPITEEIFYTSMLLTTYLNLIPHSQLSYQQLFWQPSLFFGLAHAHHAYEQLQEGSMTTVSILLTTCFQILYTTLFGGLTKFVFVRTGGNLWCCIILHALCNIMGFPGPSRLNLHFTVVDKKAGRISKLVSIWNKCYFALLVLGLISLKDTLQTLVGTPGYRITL
# eIF4H inh: inhibitors of RNA binding by human eIF4H; AID 2012; Q15056; 290,000 tested, 0.94% active; inhibition, % at 35 µM; eIF4H fluorescence polarization binding assay;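 active means 50% or more with normal probe brightness, or confirmed in later tests; about a fifth of its hits are not listed in these tables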;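 further: calls also rest on retests at 20 µM and on dose response follow-up; 0% = protein and probe with vehicle and 100% = probe without protein; strong numbers were not always called active; many hits fall short of the cut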
# MT1-MMP act inh: MT1-MMP (human) activation inhibition. HT1080 RFP-PRO-GFP cells, GFP/RFP ratio fluorescence, overnight; percent of plate control window, DMSO zero. AID 651647. 360,000 tested, 0.061% active. GFP/RFP ratio change, % at 20 µM;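 active means GFP/RFP ratio change of at least 30% with cell ATP level not reduced by more than half and red fluorescence within 50% of control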; further: strong numbers were not always called active
#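 Material – HT1080 RFP-PRO-GFP cells · Control set – DMSO wells and RFP-L50D-GFP cells · Incubation – overnight cell settling, then overnight compound exposure, 37 °C, 5% CO2 · Compound dosing – single-point 20 µM compound, 1% DMSO · Read-out – GFP/RFP fluorescence ratio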
# UUG fidelity: alters start codon recognition fidelity in yeast; S. cerevisiae UUG-firefly luciferase reporter, luminescence/redox ratio; activity score, % at 18.7 µM; 350,000 tested, 0.13% active;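 active means replicate mean at a twofold rise or more, about +100% in these data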;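 further: firefly luciferase made from a UUG start codon reports start codon fidelity; reporter light over untreated wells divided by growth signal over untreated wells; some hits fall short of that in this replicate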
# CSC inhib: cancer stem cell inhibition. cancer stem cell-like cells viability, luminescence. inhibition, % at 7.5 µM. 300,000 tested, 1.1% active;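 active means mean at 75% or more and at least half the replicates too; tested in HMLE shEcad cells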;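 further: 0% = median of negative and 100% = median of positive control wells; the first replicate is given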
# PABP polyA inh: blocks human PABP binding to poly(A) RNA. fluorescence polarization. P11940. inhibition, % at 35 µM. 290,000 tested, 1% active;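 active means 50% or more with normal probe brightness, or confirmed in later tests; about a fifth of its hits are not listed in these tables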;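 further: calls also rest on retests at 20 µM and on dose response follow-up; controls were probe without protein and protein plus probe with vehicle; some compounds called inactive have numbers as strong as hits; many hits fall short of the cut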
# Env fusion inh: HIV envelope-mediated fusion inhibition; HeLa-JRFL Env/CEM21 cell fusion, luciferase; inhibition, % at 12.3 µM; 360,000 tested, 1.1% active; AID 651610;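 active means mean replicate inhibition score of at least 50 and every replicate individually at or above 50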;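 further: 0% = plate neutral controls and 100% = maraviroc near 300 nM; one replicate is shown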
# eIF4H inh retest: also measured in eIF4H inh; calls as there; inhibition, %; compound at 20 µM; confirmation average;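 mean of two retest wells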
# PABP polyA inh retest: recorded beside PABP polyA inh, whose call it bears; inhibition, %; compound at 20 µM; confirmation repeats;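 mean of two retest wells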
# MT1-MMP act inh RFP: further read-out of MT1-MMP act inh, marked with its call; RFP signal change, %; measured here: RFP expression control read;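 0 = vehicle wells; hits needed this value within 50% of zero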
# * marks the source's active call; other numbers are inactive results; i = inactive; . = not tested or not shown; + = active, no number; [ ] = another dose, or the depositor's remark.
SMILES,Rce1 inh,eIF4H inh,MT1-MMP act inh,MT1-MMP act inh RFP,UUG fidelity,CSC inhib,PABP polyA inh,Env fusion inh,others
COc1cc2[nH]cc(C(=O)NCc3cccs3)c(=O)c2cc1OC,i,.,2.2,2.4,.,10.8,.,2.3,
c1ccc2c(c1)oc1c(-c3ccc4nccn4c3)cccc12,.,.,1.8,-2.7,-19.8,.,.,7.6,
COc1ccc(NC(=O)Cn2c(=O)c(C)nc3ccccc32)cc1Cl,i,2.5,6.2,-7.2,-9.5,-9.5,-2.4,-5.6,
Cc1ccc2c(c1)C(=O)C(=O)N2CCCOc1ccccc1,+,-3.0,10.2,4.4,-9.2,38.5,-0.5,-6.3,
COc1cccc(NC(=O)Nc2nnc(-c3ccccc3SCc3ccccc3)s2)c1,i,-0.3,3.1,1.4,-9.7,-0.3,-0.8,.,
CCSc1nnc(NC(=O)C2CCN(S(=O)(=O)c3cc(C(F)(F)F)ccc3Cl)CC2)s1,i,14.0,3.6,-7.9,-14.5,.,-1.3,.,
O=C(COc1ccc2ccccc2c1)NNC(=O)[C@@H]1CCCC[C@@H]1C(=O)O,i,-2.7,2.1,0.8,.,-4.1,10.0,.,
Cc1ccc(/C=C/C(=O)NCc2cccs2)cc1,i,-6.5,-3.4,-1.1,.,-3.8,-11.0,-10.4,
Cc1nc(SCCc2nc3ccccc3[nH]2)c2oc3ccccc3c2n1,.,.,5.3,4.2,-18.7,.,.,-13.4,
CN(C[C@H](Cc1ccccc1)N(CCN(CCc1ccccc1)N=O)N=O)N=O,i,-8.0,1.9,-2.2,-7.0,-9.2,57.1*,33.3,
COc1cc(/C=C/C(=O)O)cc(S(=O)(=O)NCc2ccc3c(c2)OCO3)c1OC,i,-3.4,9.0,6.5,-12.0,-0.4,-12.0,-8.2,
Cc1nn(CCc2nn[nH]n2)c2nc(-c3ccc(Br)cc3)cc(C(F)(F)F)c12,i,24.6,-1.0,-15.0,.,33.5,0.7,5.1,
Cc1ccc(S(=O)(=O)N(C)C)cc1NC(=O)c1ccccc1Br,i,-9.7,-0.1,2.0,.,2.7,6.8,-9.4,
Cn1nc(-c2ccc(Cl)cc2)cc1NC(=O)CC(C)(C)CC(=O)O,i,2.6,.,.,11.6,-11.7,4.8,2.2,
CCCc1cc(=O)[nH]c2nnc(SCC(=O)Nc3ccc4c(c3)OCCO4)n12,i,.,2.6,1.7,-21.5,16.0,.,.,
Cc1ccc(-n2nc3c(=O)n(C(C)C(=O)NCCC4=CCCCC4)nc(C)c3c2C)cc1 (centres undefined),i,.,0.1,-30.9,12.0,12.3,.,37.6,
COc1ccc(CCNC(=O)Cc2cc(=O)[nH]c(=O)[nH]2)cc1OC,i,-8.5,3.3,7.1,-14.8,-10.7,9.6,8.3,
CC1CCC2(CC1)NC(=O)N(CC(=O)N(Cc1ccccc1)C(C)(C)C)C2=O (centres undefined),.,.,-4.6,-0.7,-13.5,.,.,3.3,
CCCN1CCN(C2CCCCC2NS(=O)(=O)c2ccc(Cl)cc2)CC1 (centres undefined),i,-7.6,-3.1,0.6,0.0,-10.1,-1.2,.,
Cn1c(=O)c2c(nc(CCc3ccccc3)n2C)n(C)c1=O,.,.,-0.3,4.8,-20.9,.,.,-30.0,
Cc1ccc(CNC(=O)CSc2nc3ccccc3c(=O)n2CCCO)cc1,i,-2.7,-0.3,-1.3,-6.0,10.0,12.0,.,
CC(=O)c1ccc(-c2ccc(C(=O)N3CCCc4ccccc43)o2)cc1,i,-3.9,5.1,0.6,.,-2.5,6.3,-17.2,
C/C(=N\NC(=O)c1nnn(-c2nonc2N)c1C)c1ccc(OCc2ccccc2)cc1,i,.,-4.5,-0.7,-14.4,-2.8,.,-16.5,
COCCN(C(=O)COC(=O)c1cccnc1Cl)c1c(N)n(Cc2ccccc2)c(=O)[nH]c1=O,i,.,2.8,7.6,8.2,1.6,.,7.2,

# Fetched by compound from the entries so far (4):
SMILES,Rce1 inh,eIF4H inh,MT1-MMP act inh,MT1-MMP act inh RFP,UUG fidelity,CSC inhib,PABP polyA inh,Env fusion inh,others
Cc1ccc(CNC(=O)CSc2nc3ccccc3c(=O)n2CCCO)cc1,i,-2.7,-0.3,-1.3,-6.0,10.0,12.0,.,
CC(=O)c1ccc(-c2ccc(C(=O)N3CCCc4ccccc43)o2)cc1,i,-3.9,5.1,0.6,.,-2.5,6.3,-17.2,
COc1ccc(CCNC(=O)Cc2cc(=O)[nH]c(=O)[nH]2)cc1OC,i,-8.5,3.3,7.1,-14.8,-10.7,9.6,8.3,
Cc1ccc(S(=O)(=O)N(C)C)cc1NC(=O)c1ccccc1Br,i,-9.7,-0.1,2.0,.,2.7,6.8,-9.4,

# New compounds follow:
SMILES,Rce1 inh,eIF4H inh,MT1-MMP act inh,MT1-MMP act inh RFP,UUG fidelity,CSC inhib,PABP polyA inh,Env fusion inh,others
COC(=O)c1ccc(NC(=O)CNCc2ccncc2)cc1,i,-12.0,-0.9,1.7,.,3.8,-3.3,19.9,
O=C(Nc1ccc(Cl)cc1)N1CCOC12CCC1(CC2)OCCO1,i,6.6,3.2,6.5,.,8.2,-0.3,6.0,
Nc1nc(N)c(N=Nc2ccccc2)c(=O)[nH]1,.,.,5.1,6.3,-12.0,.,.,-0.4,
COc1cccc(C(=O)Nc2cccc(NC(C)=O)c2)c1,i,0.7,10.4,4.8,-2.9,-3.2,-3.1,-52.3,
O=C(NCC1CCCO1)[C@@H]1CSC2c3ccccc3C(=O)N21 (some centres undefined),i,3.8,-0.8,2.7,0.8,-9.4,-2.8,.,
COc1ccccc1C#CC1=CC(=O)C[C@H](c2ccc(F)cc2)C1,.,.,-3.5,-5.2,17.2,.,.,-1.9,
CC(C)n1cnc2cc(NCc3ccccc3O)ccc21,i,-3.3,2.1,3.8,.,-21.7,0.1,4.7,
OC(CN1CCOCC1)c1ccc(F)cc1 (centres undefined),i,-3.4,-4.0,-3.4,.,-0.4,-1.0,16.4,
Cc1ccc(NC(=O)COC(=O)c2ccc(=O)n(Cc3ccccc3)n2)cc1F,i,.,0.7,3.0,10.0,-7.6,.,-6.6,
CCNC(=O)NC(=O)C(C)OC(=O)c1cccnc1SC (centres undefined),i,.,2.5,1.7,-8.3,-3.3,.,.,
Cc1ccccc1NCC(=O)N=Nc1c(O)[nH]c2ccc([N+](=O)[O-])cc12,i,5.9,-1.3,2.4,-14.8,-11.2,12.4,9.3,
O=S(=O)(c1ccccc1)N1CCN(c2nc(-c3cccnc3)nc3ccccc23)CC1,.,.,-1.4,-0.5,-16.3,.,.,-9.3,
CCCCc1cc(=O)oc2cc(OC(C)C(=O)NCC3CCC(C(=O)O)CC3)c(Cl)cc12 (centres undefined),i,-13.9,2.2,0.1,11.6,-7.6,10.9,.,
CCc1ccccc1NC(=S)N(Cc1ccc(OC)cc1)CC1CCC(C(=O)O)CC1 (centres undefined),i,-5.1,-2.2,0.3,-24.0,-8.0,2.4,-9.0,
Cc1[nH]n(-c2nc(-c3ccccc3F)cc(=O)[nH]2)c(=O)c1CCO,i,-1.5,5.2,6.9,.,-10.1,9.8,-0.2,
O=C(C1CCCN(S(=O)(=O)c2cccc3nsnc23)C1)N1CCc2ccccc2C1 (centres undefined),i,-4.2,-13.3,-8.7,-3.0,-6.6,-7.9,.,
CCCOC(=O)Nc1c(C)cccc1C(C)C,i,-5.7,-1.8,1.3,-16.6,7.5,11.6,-2.6,
Nc1ccccc1-c1nc2ccncc2[nH]1,.,.,-0.6,1.6,-13.4,.,.,-5.6,
O=C(NCCCN1CCCC1)c1ccc(CS(=O)(=O)c2ccc(Br)cc2)o1,i,-3.3,3.7,1.8,0.7,-13.8,-0.4,-10.9,
Cc1c(NC(=O)C(C)c2ccc(CC(C)C)cc2)c(=O)n(-c2ccccc2)n1C (centres undefined),i,-0.3,3.3,3.0,.,-9.5,4.7,-1.9,
COc1ccc(NC(=O)N(C)C[C@H]2Oc3c(NC(=O)C4CCCCC4)cccc3C(=O)N([C@H](C)CO)C[C@@H]2C)cc1,.,.,0.1,5.7,0.4,.,.,-1.8[16.7 µM],
NS(=O)(=O)c1cccc(NC(=O)c2ccc(NS(=O)(=O)c3cccc([N+](=O)[O-])c3)cc2)c1,.,.,2.1,6.0,-7.2,2.9,.,.,
CCC1(C)Cc2ccccc2C(Nc2c(C)n(C)n(-c3ccccc3)c2=O)=N1 (centres undefined),i,-4.0,-1.1,-0.4,-11.6,.,-11.0,.,
COc1cc2c(c(O)c1OC)-c1c(cc(OC)c(OC)c1O)[C@@H](OC(=O)c1ccccc1)[C@@](C)(O)[C@@H](C)[C@@H]2OC(C)=O,i,-0.9,.,.,.,.,-7.2,.,
CCCCC1=CC2=CC(=O)C(C)(OC(=O)CC)C(=O)C2=CN1C1CCCCC1 (centres undefined),i,17.1,-2.3,3.2,31.1,13.0,33.3,9.1,
O=C(Nc1ccc(S(=O)(=O)N2CCN(Cc3ccccc3)CC2)cc1)c1cnccn1,i,-1.2,-4.2,-20.8,-8.6,-3.5,-8.7,95.2*,
COc1nnc(-c2ccc(C)c(S(=O)(=O)N(C)C)c2)c2ccccc12,i,4.3,0.4,-5.4,-1.9,-8.0,11.7,10.1,
COCCCN(C(=O)c1cc2c(s1)CCC2)c1c(N)n(Cc2ccccc2)c(=O)[nH]c1=O,i,79.7,-2.4,0.5,.,-9.7,0.6,10.2,eIF4H inh retest=-1.0;PABP polyA inh retest=1.0
O=c1c2cc([N+](=O)[O-])ccc2nc2n1CCCC2,i,11.2,-2.2,-0.6,-23.3,-2.3,0.1,-27.0,
Cc1ccc(S(=O)(=O)NNC(=O)NC23CC4CC(CC(C4)C2)C3)cc1,i,-7.5,-4.3,-5.6,.,6.5,0.2,.,
O=C(Nc1cccc(-n2cnnn2)c1)C1CCCN(Cc2cccc(C(F)(F)F)c2)C1 (centres undefined),i,-9.3,4.0,-10.7,-6.7,11.2,5.3,34.5,
CCN(CC)C(=O)CSc1nc(C)cc(C)c1C#N,i,10.2,-1.4,-1.0,-10.7,-10.7,-10.8,8.3,
C#CCOCCOCCOCCNc1nc(N2CCN(C(=O)[C@H](CCCN=C(N)N)n3cc(C(N)[C@@H](C)CC)nn3)CC2)nc(N2CCN(C(=O)[C@H](CCC(=O)O)n3cc([C@@H](N)[C@H](C)CC)nn3)CC2)n1 (some centres undefined),.,.,2.8,1.2,-24.4,.,.,31.8,
O=C(Nc1ccc2ccccc2c1)c1cccc2ccccc12,.,.,0.9,-1.4,-4.1,.,.,-15.4,
C=CCOc1cccc(CNc2ccc3[nH]c(=O)[nH]c3c2)c1,i,3.6,5.9,-10.6,-15.4,-1.5,-9.8,-6.1,
Cc1ccc(NC(=S)N(CCN(C)C)C(C)c2ccco2)c(C)c1 (centres undefined),i,-9.7,6.5,5.3,-6.8,-10.9,1.5,3.6,
CS(=O)(=O)N(CC(=O)N1CCCC1)Cc1ccc(Cl)cc1,i,5.0,0.5,3.2,.,-7.4,3.0,-16.5,
CCC(=O)N1CCc2cc(S(=O)(=O)CCC(=O)Nc3nc(C)cs3)ccc21,i,4.1,5.4,-0.9,-2.5,8.3,3.1,-15.8,
CCOC(=O)c1cc(-c2ccccc2)sc1NC(=O)C(C)OC(=O)c1cccc(S(=O)(=O)N(C)C)c1 (centres undefined),i,3.0,-4.9,-4.7,.,15.1,-5.0,-92.9,
CS(=O)(=O)c1ccc(Cl)c(S(=O)(=O)NCc2ccccc2)c1,i,5.9,2.4,-0.7,-11.8,-9.6,-2.2,-23.8,
CN(CC(=O)Nc1ccccc1Cl)C(=O)COC(=O)Cc1c(F)cccc1Cl,i,-6.6,3.0,2.6,-8.3,-15.7,4.8,-15.5,
CCn1nc(NC(=O)c2ccco2)c2cc3ccccc3nc21,i,-4.0,-0.5,-1.3,-11.7,-6.3,11.7,-67.1,

# Not all compounds are listed (hit frequency here may not be typical).
